Bioassay records (PubChem BioAssay)
CSC inhib: cancer stem cell viability inhibitors, primary screen, luminescence; 1.1% of 300,000 active; inhibition, % at 7.5 µM; cancer stem cell-like cells viability; AID 2717, 2010;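 active = mean at 75% or more and at least half the replicates too; inconclusive = mean and replicates disagree; tested in HMLE shEcad cells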;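 also: 0% = median of negative and 100% = median of positive control wells; the first replicate is given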
Rce1 inhib: yeast Rce1p protease inhibitors, primary screen, biochemical, fluorescence, cell-free homogeneous. CAAX prenyl protease 2 (Saccharomyces cerevisiae (strain ATCC 204508 / S288c)), Q03530. yeast membranes, quenched prenylated peptide cleavage fluorescence. calls only. 0.27% of 290,000 active. AID 2563, 2010;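 active = fall in fluorescence gain of 50% or more versus controls, with final raw signal at or below 3038400; inconclusive = same 50% fall but final raw signal above 3038400; inactive = fall in fluorescence gain under 50%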;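 also: plate controls were neutral control wells for no effect and wells lacking membranes for full effect; tested at 10 µM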
Target sequence (Q03530 whole entry, looked up): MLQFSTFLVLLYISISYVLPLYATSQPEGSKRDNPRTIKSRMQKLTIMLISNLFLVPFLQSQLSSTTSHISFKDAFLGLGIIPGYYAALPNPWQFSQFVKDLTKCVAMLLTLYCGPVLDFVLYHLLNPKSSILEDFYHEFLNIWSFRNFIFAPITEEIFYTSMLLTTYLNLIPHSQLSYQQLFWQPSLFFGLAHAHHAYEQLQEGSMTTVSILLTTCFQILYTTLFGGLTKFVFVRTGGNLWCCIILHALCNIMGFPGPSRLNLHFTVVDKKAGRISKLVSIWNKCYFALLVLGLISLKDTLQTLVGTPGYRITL
MT1-MMP act inh: blockers of MT1-MMP proenzyme processing, primary screen, HT1080 RFP-PRO-GFP cells, GFP/RFP fluorescence. Matrix metalloproteinase-14 (Homo sapiens), P50281. GFP/RFP ratio fluorescence, overnight; percent of plate control window, DMSO zero. GFP/RFP ratio change, % at 20 µM. 0.061% of 360,000 active. AID 651647, 2012;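 active = GFP/RFP ratio change of at least 30% with cell ATP level not reduced by more than half and red fluorescence within 50% of control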; also: strong numbers were not always called active
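Material: RFP-PRO-GFP reporter HT1080 cells. Dosing: single-point 20 µM compound, 1% DMSO. Controls: DMSO and RFP-L50D-GFP cell wells. Timing: cells overnight before dosing, compound overnight, 37 °C, 5% CO2. Measure: GFP/RFP fluorescence ratio.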
PABP FP inh: PABP poly(A) RNA binding inhibitors, primary screen, biochemical, fluorescence polarization, uHTS. 1% of 290,000 active. inhibition, % at 35 µM. AID 2014, 2009;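 active = 50% or more with normal probe brightness, or confirmed in later tests; inconclusive = above 50% with abnormal brightness, or retests that disagree; inactive = below 50% or failed in later tests; about a fifth of its hits are not listed in these tables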;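 also: calls also rest on retests at 20 µM and on dose response follow-up; controls were probe without protein and protein plus probe with vehicle; some compounds called inactive have numbers as strong as hits; many hits fall short of the cut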
HIV Env fusion: inhibitors of HIV-1 Env-driven cell-cell fusion, primary screen, HeLa-JRFL effector, CEM21 target cells, luciferase; inhibition, % at 12.3 µM; 1.1% of 360,000 active;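 active = mean replicate inhibition score of at least 50 and every replicate individually at or above 50; inconclusive = only one of the two criteria met; inactive = mean below 50 and not all replicates reaching 50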;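 also: 0% = plate neutral controls and 100% = maraviroc near 300 nM; one replicate is shown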
eIF4H FP inh: human eIF4H binding inhibitors, primary screen, translation initiation inhibitor project, biochemical, uHTS, fluorescence polarization; eIF4H fluorescence polarization binding assay; 0.94% of 290,000 active; inhibition, % at 35 µM;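 active = 50% or more with normal probe brightness, or confirmed in later tests; inconclusive = above 50% with abnormal brightness, or retests that disagree; inactive = below 50% or failed in later tests; about a fifth of its hits are not listed in these tables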;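 also: calls also rest on retests at 20 µM and on dose response follow-up; 0% = protein and probe with vehicle and 100% = probe without protein; strong numbers were not always called active; many hits fall short of the cut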
UUG fidelity: modulators of yeast start codon fidelity, primary screen, whole organism, S. cerevisiae, single point, plate reader. S. cerevisiae UUG-firefly luciferase reporter, luminescence/redox ratio. activity score, % at 18.7 µM. 0.13% of 350,000 active;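 active = replicate mean at a twofold rise or more, about +100% in these data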;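 also: firefly luciferase made from a UUG start codon reports start codon fidelity; reporter light over untreated wells divided by growth signal over untreated wells; some hits fall short of that in this replicate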
eIF4H FP inh retest: also measured in eIF4H FP inh; calls as there; inhibition, %; compound at 20 µM; confirmation average;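 mean of two retest wells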
PABP FP inh retest: also measured in PABP FP inh; calls as there; inhibition, %; compound at 20 µM; confirmation repeats;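 mean of two retest wells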
MT1-MMP act inh RFP: further read-out of MT1-MMP act inh, marked with its call; RFP signal change, %; measured here: RFP expression control read;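 0 = vehicle wells; hits needed this value within 50% of zero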
Active calls of the source: *; i = inactive; u = inconclusive; x = not tested or not shown; + = active, no number; & = joins results of further samples. Only part of the results is shown. The share of hits here may be higher or lower than overall.

SMILES | CSC inhib | Rce1 inhib | MT1-MMP act inh | MT1-MMP act inh RFP | PABP FP inh | HIV Env fusion | eIF4H FP inh | UUG fidelity | others
O=C(N[C@H]1C/C=C\C[C@@H](CC(=O)N(CCO)Cc2ccccc2)C(=O)N2CCC[C@H]2COC1=O)OCC1c2ccccc2-c2ccccc21 | 10 | x | -2 | -2 | x | 15 | x | -3
CCCCCNC(=O)c1ccc(NS(=O)(=O)c2ccc3[nH]c(=O)[nH]c3c2)cc1 | -17 | i | 3 | 2 | -1 | -1 | 6 | -16
COc1cccc(C(C(=O)NC2CCCC2)N(C(=O)c2ccco2)c2cccc(C(C)=O)c2)c1OC (stereo not drawn) | 5 | i | -1 | 3 | 7 | -16 | -15 | -7
C[C@@H]1CNC(=O)c2c(C(=O)N[C@@H](Cc3c[nH]c4ccccc34)C(=O)OC(C)(C)C)ncn21 | x | x | 3 | -1 | x | -85 | x | -27
CCOC(=O)c1c(NC(=O)CSc2c[nH]c3ccccc23)sc2c1CCC2 | 30 | i | -1 | -9 | 6 | x | 0 | -9
CCC(c1nnnn1C1CCCC1)N1CCN(c2ccccc2)CC1 (stereo not drawn) | -2 | i | 0 | 3 | -11 | x | -4 | -3
CCOc1cc2[nH]c(=S)n(CCC(=O)NC3CCCCC3)c(=O)c2cc1OCC | x | x | -1 | 2 | x | 12 | x | -5
Cc1cc([N+](=O)[O-])ccc1NC(=O)c1sc2ncn(CC(=O)N3CCOCC3)c(=O)c2c1C | 9 | i | 2 | 1 | -3 | 3 | 4 | -8
Cc1ccc(NC(=S)N/N=C/c2ccc(Cl)c([N+](=O)[O-])c2)cc1 | -6 | i | 16 | 1 | -4 | -34 | -4 | x
CCOc1c(Cl)cc(CNc2ccc(N3CCCC3)cc2)cc1OC | x | i | -5 | 5 | -6 | -37 | 4 | -56
O=C(Cc1ccc([N+](=O)[O-])cc1)Nc1nccs1 | -15 | i | 1 | -1 | 4 | -15 | -6 | -10
CC1(C)N=C(N)N=C(N)N1c1ccccc1 | 0 | i | 4 | 2 | -6 | x | -9 | -9
C[C@@]12CC(=O)NC1N(C(=O)c1cccc(C(F)(F)F)c1)C(c1ccccc1OC(=O)c1cccc(C(F)(F)F)c1)C2 (stereo partly drawn) | 1 | i | -36 | -30 | 8 | x | -15 | 5
COc1cccc(C(=O)C2CCCN(Cc3cn[nH]c3C3CCCCC3)C2)c1 (stereo not drawn) | -6 | i | 1 | 3 | 7 | 1 | 1 | x
Cc1sc2ncnc(N3CCC(C(=O)N(C)CC(=O)Nc4cccc(F)c4)CC3)c2c1C | x | x | -10 | -21 | x | 24 | x | -8
O=C(CCCc1ccccc1)Nc1ccccc1[N+](=O)[O-] | -6 | i | 2 | 2 | -12 | -12 | -10 | -5
CC(=O)N1N=C(c2ccc(NS(C)(=O)=O)cc2)CC1c1ccc2nccnc2c1 (stereo not drawn) | -15 | i | -5 | -8 | -11 | -12 | 0 | x
O=C(C(O)c1ccccc1)N1N=C(c2ccccc2)CC1(O)C(F)(F)F (stereo not drawn) | -14 | i | -1 | 2 | -13 | 4 | -5 | -1
COc1cc2c(cc1OC)CN(C(=O)CCc1c[nH]c3ccccc13)[C@H](C(=O)O)C2 | -17 | i | 4 | 5 | -2 | 3 | -6 | 79
O=C1c2ccccc2C(=O)N1CCCc1nc(-c2cccnc2)no1 | 5 | i | -1 | 3 | 24 | -10 | 18 | x
O=c1[nH]c(Nc2ccccn2)cc2ccccc12 | -2 | + | 12 | -2 | x | -132 | x | -54
CC(=O)NCCc1nc2ccccc2n1CCc1ccccc1 | x | i | 4 | 8 | 4 | 4 | -3 | x
Cc1c(C#N)c(N=CN(C)C)c(C(=O)c2ccc(Br)cc2)n1-c1ccc(Cl)cc1 | -7 | x | 3 | -5 | -2 | -4 | -15 | 5
CC1CCCN(C(=O)COC(=O)c2ccc3[nH]c4c(c3c2)CCCC4)C1 (stereo not drawn) | 8 | i | 0 | -6 | x | -52 | x | 5
Cc1cc(C)cc(NC(=O)COC(=O)C2CC3C=CC2C3)c1 (stereo not drawn) | x | x | 2 | 6 | x | 32 | x | -1
CC(c1ccccc1)N1CCC(CNC(=S)Nc2cccc(Cl)c2)C1 (stereo not drawn) | 19 | i | 2 | -3 | 28 | 7 | -5 | 62
Cc1nn2c3ccccc3nc2c2ccccc12 | 19 | i | 8 | 0 | 1 | -126 | 6 | -10
O=C(Nc1ccc(Oc2cccc(C(F)(F)F)c2)nc1)c1ccco1 | 13 | i | -2 | -20 | 2 | 12 | -1 | -8
Cc1ccc(C)c(SCC(=O)Nc2cccc(S(=O)(=O)N3CCOCC3)c2)c1 | x | x | 3 | -3 | x | 4 | x | -1
CC1=CCC2C(=O)N(c3nc4ccccc4n3C)C(=O)C2C1 (stereo not drawn) | -1 | i | 1 | 1 | 11 | -63 | 20 | -13
N#Cc1cccc(S(=O)(=O)NCCOc2ccccc2F)c1 | 6 | x | 1 | -1 | x | x | x | 9
Cc1cc(C(=O)NC2CC(C)(C)Cc3c2cnn3-c2cccc(F)c2)nn1C (stereo not drawn) | -20 | x | 0 | -1 | -5 | 27 | -2 | -14
O=C(CSc1nnc(Cc2ccccc2)n1-c1cccc(Cl)c1)N1CCOCC1 | -12 | i | -4 | -1 | -4 | -64 | 86 | -8 | eIF4H FP inh retest=8;PABP FP inh retest=-6
CCCCn1c(-c2ccc(F)c(F)c2)nc2cc3[nH]c(=O)c(C(C)C)nc3cc21 | 60 | i | 0 | -5 | 31 | -44 | 22 | -14
CSCCC(NC(=O)c1ccco1)C(=O)N1CCN(C(c2ccccc2)c2ccccc2)CC1 (stereo not drawn) | x | x | -4 | -8 | x | 16 | x | -14
CCc1ccc2nc(N(CCN(C)C)C(=O)/C=C/c3cccs3)sc2c1 | 66 | i | -2 | -4 | 4 | x | -13 | 6
Cc1noc(C)c1COC(=O)[C@@H](NC(=O)c1ccccc1)C(C)C | -3 | i | 1 | -4 | -2 | -8 | -2 | x
COc1ccc(Nc2cc(NCCCO)c([N+](=O)[O-])c3nonc23)cc1 | -7 | i | 6 | 0 | 12 | 7 | 7 | -8
O=C1CN(C(=O)c2cccs2)c2ccccc2N1 | -5 | i | -4 | 0 | -11 | -137 | 1 | -15
CCCCCOC(=O)c1[nH]c2c(c1C)C(=O)CC(c1ccco1)C2 (stereo not drawn) | 73 | i | -12 | -29 | -2 | x | 21 | -6

Grouped by structure: the entries above with a cyano group
SMILES | CSC inhib | Rce1 inhib | MT1-MMP act inh | MT1-MMP act inh RFP | PABP FP inh | HIV Env fusion | eIF4H FP inh | UUG fidelity | others
Cc1c(C#N)c(N=CN(C)C)c(C(=O)c2ccc(Br)cc2)n1-c1ccc(Cl)cc1 | -7 | x | 3 | -5 | -2 | -4 | -15 | 5
N#Cc1cccc(S(=O)(=O)NCCOc2ccccc2F)c1 | 6 | x | 1 | -1 | x | x | x | 9

The list continues.
SMILES | CSC inhib | Rce1 inhib | MT1-MMP act inh | MT1-MMP act inh RFP | PABP FP inh | HIV Env fusion | eIF4H FP inh | UUG fidelity | others
Cc1ccc(S(=O)(=O)N(C)C[C@H]2Oc3ncc(-c4ccccc4)cc3C(=O)N([C@@H](C)CO)C[C@@H]2C)cc1 | x | x | -3 | 2 | x | -22 | x | 12&1&4
COc1ccc(OC)c(NC(=O)c2cccc(NC(=O)c3ccccc3C(=O)O)c2)c1 | 0 | i | 6 | 2 | 2 | 9 | -3 | x
CCS(=O)(=O)C1=NSC2=NC(=O)/C(=C\c3ccc(OC(=O)c4ccco4)c(OC)c3)C(=N)N21 | 0 | i | -34 | 9 | 11 | 14 | 0 | -18
CN(CC(=O)NCc1ccccc1)CC(=O)Nc1ccc(Cl)c(C(F)(F)F)c1 | -3 | x | 1 | -5 | x | x | x | 0
NNC(=O)CN1C(c2ccc(Br)cc2)=Nc2ccc(Br)cc2C1c1ccccc1 (stereo not drawn) | 10 | i | -12 | -4 | -3 | 29 | -19 | -10
Nc1nonc1C(=O)NCCNCc1ccccc1OCc1ccccc1F | x | i | 2 | -2 | -7 | -67 | -3 | -24
Cc1ccsc1/C=N/n1c(-c2ccccc2)n[nH]c1=S | -12 | i | 1 | 4 | 12 | -12 | -1 | x
CCCCc1ccc(Nc2ncccc2C#N)cc1 | -12 | i | 2 | 0 | 0 | x | -6 | -14
NC(=NCCc1ccccc1)NS(=O)(=O)c1ccccc1F | -13 | i | 2 | 2 | 0 | 3 | 2 | -12
CS(=O)(=O)N(Cc1ccccc1)c1ccccc1C(=O)N1CCN(c2ccccc2)CC1 | 0 | x | -2 | -7 | 2 | -15 | 7 | -8
Cn1c(-c2cc3ccc(OC(=O)C(C)(C)C)cc3oc2=O)nc2ccccc21 | 3 | i | -7 | 2 | 5 | -116 | 13 | -21
CC(C)(C)C(=O)N1CCN(C(c2ccccc2)c2ccccc2)CC1 | 1 | i | -3 | -5 | 4 | x | 7 | 9
Cc1nc(CCNC(=O)CC2C(=O)NCCN2CC(C)(C)C)nc2c1CCC2 (stereo not drawn) | -3 | i | -5 | 0 | 18 | 1 | 7 | -22
CCCOc1ccc(N2C(=O)CC(NCc3ccc(S(N)(=O)=O)cc3)C2=O)cc1 (stereo not drawn) | -7 | i | -2 | 2 | -7 | 9 | -6 | x
Cc1ccc(CNc2ccc(N3CCOCC3)cc2)s1 | -13 | i | 3 | 4 | -7 | -77 | -2 | -46
CCCNC(C)C(=O)Nc1ccccc1C (stereo not drawn) | -3 | i | 0 | 2 | 1 | -8 | -4 | -14
COc1ccc(CSCC(=O)Nc2ccccc2)cc1[N+](=O)[O-] | -13 | i | 3 | 2 | -2 | -25 | -4 | -22
CC(C)C(NC=C1C(=O)OC(C)(C)OC1=O)C(=O)O (stereo not drawn) | -11 | i | 4 | 5 | 4 | x | -13 | -10
CCCCN(C)c1c(C)nc2ccc(C(=O)NC3CCN(C)CC3)cn12 | x | x | 5 | 2 | x | 29 | x | -7
CCOc1ccc(/C=C/C2=Cc3c(sc(NC(=O)CSc4n[nH]c(N)n4)c3C#N)C(C)(C)C2)cc1 | 5 | i | -48 | 3 | u | 14 | u | x
CSc1nccc(Oc2ccccc2Cl)n1 | 14 | i | -4 | -6 | x | -6 | x | -23
Cc1cc(C(=O)N2CCN(c3ccccc3)CC2)c(C)o1 | -6 | i | x | x | 5 | 7 | -4 | -6
CCOC(=O)c1c(C)[nH]c(C(=O)COc2ccc3c(c2)OCO3)c1C | 28 | i | 0 | -5 | 0 | x | 6 | 2
O=C(N/N=C/c1ccccn1)c1ccc(Br)cc1 | 15 | i | 15 | -3 | 13 | x | 14 | x
COc1ccc(CCN(C)C(=O)CSc2nnc(C3CC3)n2N)cc1OC | -8 | i | 2 | 4 | x | 0 | x | 8
COc1ccc(CN(Cc2nc3ccccc3c(=O)[nH]2)C(=O)NC2CCCCC2)cc1 | 1 | i | -4 | -4 | 5 | -111 | -6 | -5
